# Source: PubChem BioAssay
# UCH37 DUB inh: inhibitors of human deubiquitinating enzyme UCH37. inhibition, % (concentration not given with the values). 330,000 tested, 0.33% active. purified proteasome/UCH37, Ub-AMC cleavage fluorescence;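 active = mean of two replicates above 20%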;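 also: 0% = compound-free wells with enzyme and 100% = wells lacking proteasome; stock transfer was 100 nL into about 20 µL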
# Target sequence (Q9Y5K5 whole entry, looked up): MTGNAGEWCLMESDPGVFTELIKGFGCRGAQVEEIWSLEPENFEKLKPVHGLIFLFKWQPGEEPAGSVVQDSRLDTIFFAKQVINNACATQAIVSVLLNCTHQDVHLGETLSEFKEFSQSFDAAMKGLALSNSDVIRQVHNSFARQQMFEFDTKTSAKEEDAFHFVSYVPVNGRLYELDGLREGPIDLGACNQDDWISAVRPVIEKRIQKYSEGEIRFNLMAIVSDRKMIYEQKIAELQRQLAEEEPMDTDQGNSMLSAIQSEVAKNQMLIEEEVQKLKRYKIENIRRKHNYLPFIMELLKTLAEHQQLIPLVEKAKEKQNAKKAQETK
#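 Signal – fluorescence, ex 355 nm, em 460 nm · System – Proteasome-bound UCH37 · Input – 0.15 nM proteasome as dispensed · Timing – 30 min preincubation with enzyme, 25 min cleavage at room temperature · Read-out basis – percent inhibition of cleavage signal versus uninhibited and no-proteasome wells · Medium – Tris-HCl pH 7.4 with ATP-MgCl2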
# B2AR ag: activates human beta-2 adrenergic receptor causing internalization; 340,000 tested, 0.43% active; response, % (no concentration beside the values); Am2.2-beta2AR cells, FAP receptor internalization, flow cytometry; reference of the scale not given here; P07550;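 active = response above a set limit, near 3 SD of response in nonfluorescent compounds, cut at about 42% in these data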;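 also: stock transfer was 100 nL into about 11 µL; a reference agonist was the positive control; negative values mostly stem from fluorescent compounds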
# Target sequence (P07550 whole entry, looked up): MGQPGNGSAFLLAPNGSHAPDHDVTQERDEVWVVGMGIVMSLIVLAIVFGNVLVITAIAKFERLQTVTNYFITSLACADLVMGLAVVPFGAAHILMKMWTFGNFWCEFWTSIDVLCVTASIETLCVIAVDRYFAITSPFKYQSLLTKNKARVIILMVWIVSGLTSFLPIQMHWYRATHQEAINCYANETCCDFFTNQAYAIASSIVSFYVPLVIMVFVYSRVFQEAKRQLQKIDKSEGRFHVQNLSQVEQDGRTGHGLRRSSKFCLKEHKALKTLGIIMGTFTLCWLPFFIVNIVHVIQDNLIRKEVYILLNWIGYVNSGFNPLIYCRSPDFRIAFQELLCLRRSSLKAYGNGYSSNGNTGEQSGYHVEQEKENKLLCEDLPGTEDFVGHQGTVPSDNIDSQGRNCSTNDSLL
# HNF4A DNA FP: change in binding of human HNF4 alpha to DNA; P41235; HNF4a-FITC DNA binding, fluorescence polarization, 1 h; activity change, % at 10 µM; 360,000 tested, 0.3% active; in the data active = activity change above about 30%, passing the limit was not always enough;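 also: controls were the assay level and a saturating level of protein; the project sought stronger binding though the title names inhibitors; some compounds called inactive have numbers as strong as hits; positive values seem to mean higher polarization but the record does not say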
# Ecoli growth: E. coli growth inhibition | Escherichia coli growth, OD600, 23 h; stronger effect = lower value | 330,000 tested, 0.21% active | OD600 absorbance (concentration not given with the values) | AID 1053175;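 active = OD600 absorbance below the run mean of sample wells minus 3.6 SD, in any replicate, cut at about 0.56 in these data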;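 also: stock transfer was 300 nL into about 60 µL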
# Vif TR-FRET: HIV-1 Vif–A3G interaction blockers – biochemical, TR-FRET, GST-Vif 1-94, biotin-A3G peptide, dose response retest, primary screen (AID 1117319). TR-FRET GST-Vif / biotin-A3G peptide binding; higher % means a stronger effect; test concentration not given here; strong numbers were not always called active. inhibition, %; hits with a dose series show IC50 in µM. 260,000 tested, 0.57% active;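 active = above the screen mean plus three standard deviations and confirmed in dose response; inconclusive = results disagree or hit not tested in dose response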;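 also: Vif residues 1-94 fused to GST binding biotinylated APOBEC3G peptide 110-148; 0% = full assay without inhibitor and 100% = GST in place of GST-Vif; retest series ran down from 100 µM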
# LANA-H2B inh: blocks KSHV LANA binding to histone H2A/H2B. inhibition, % (test concentration not listed). Q9QR71. cell-free LANA-H2A/H2B peptide, fluorescence polarization. 320,000 tested, 0.6% active. AID 2629; in the data active = inhibition mostly above about 10%, no sharp cut-off; inactive = mostly below about 6.7%;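 also: stock transfer was 7.5 nL into about 10 µL; 0% = median of vehicle wells and 100% = median of positive control wells; one replicate is shown; the record names a cut of 25% in any replicate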
# A1 inh: inhibitors of the anti-apoptotic protein A1, read as caspase activation | MEF A1-2A-BIM cells, Caspase-Glo 3/7 luminescence, 3 h; percent of clofoctol response, vehicle zero | caspase activation, % (test concentration not listed) | 330,000 tested, 0.066% active;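 active = over half of replicate activation scores above 10%, or exactly half above 10 with the replicate mean above 10; inconclusive = replicate mean below 10 yet half the replicates above 10; inactive = over half of replicates below 10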;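 also: wells of about 30 µL received 50 nL stock; many hits fall short of the cut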
# An asterisk follows results filed as active; i = inactive; ? = inconclusive; . = no result given; & = joins results of further samples. These rows are one share of the data. The share of hits here may be higher or lower than overall.
# Results follow in this order: A1 inh	B2AR ag	Ecoli growth	Vif TR-FRET	HNF4A DNA FP	UCH37 DUB inh	LANA-H2B inh
COc1ccc(CC2C(=O)NC(C)C(=O)N(C)C3C(=O)N(C)C(Cc4ccc(O)c(c4)Oc4ccc(cc4)C3O)C(=O)NC(C)C(=O)NC(C)C(=O)N2C)cc1 (centres undefined)
  .	12	.	-3%	0.8	.	.
COCCNC(=O)Cn1cc(/C=C2\C(=O)NC(=O)N(c3ccccc3F)C2=O)c2ccccc21
  0.2	14	0.68	-5%	-1.3	3.4	2.6
O=C(N/N=C/c1c(O)n(CCC2=CCCCC2)c(=O)[nH]c1=O)c1ccccc1
  -0.3	1	0.7	.	-1.3	-404	0.5
CCCCOCCCn1c(N)c(C(=O)OC(C)COC)c2nc3ccccc3nc21 (centres undefined)
  1.9	-6	0.7	29%	0.4	i	0.7
Fc1ccc(C(OCCN2CCCC2)c2ccc(F)cc2)cc1
  0.8	8	0.65	.	-1.7	4.2	0.9
CNCCc1ccccc1
  0.3	.	0.77	.	.	5.3	-2.8
Cc1ccc(S(=O)(=O)Nc2cc(C(=O)N3CCC4(CC3)OCCO4)ccc2N2CCCCC2)cc1
  -0.4	-4	0.74	-3%&-3%	-1.6	4.7	-1.6
O=c1c2ccccc2nc(-c2ccco2)n1-c1ccccc1
  0.2	-3	0.72	-2%	-1.1	-6.4	-0.4
NC(=O)CN1CC(c2ccccc2)CC1=O (centres undefined)
  ?	-9	0.73	14%	-2.2	-4.3	1.1
CCOC(=O)[C@]12Cc3ccsc3[C@H]1N(Cc1ccccc1)C(=O)c1ccccc12
  .	-6	.	.	0.6	2.0	.
Cc1ccsc1CNCCc1ccccc1F
  -0.5	-5	0.68	.	1.3	2.8	-2.4
O=c1[nH]c(=O)n(CCc2ccc(F)cc2)c(O)c1C=NCCCN1CCOCC1
  0.8	-1	0.78	-7%	-0.9	-0.6	0.0
CN(C)P(=NC(=S)c1cccn1C)(N(C)C)N(C)C
  0.2	0	0.71	10%	1.0	8.2	-1.6
COC(=O)C1=C(c2ccc(F)cc2OCc2ccccc2)C[C@@H]2CC[C@H]1N2C(=O)NCC1CC1
  0.0	6	.	.	-3.2	-0.6	-3.8
C=CCOC(=O)C1C(C(=O)O)C2(Cl)C(Cl)=C(Cl)C1(Cl)C2(Cl)Cl (centres undefined)
  .	1	0.68	-2%	0.9	4.6	.
COc1ccc(C(=O)CC2C(=O)N(C)C(=O)N(C)C2=O)cc1
  -0.5	8	0.68	31%	-3.0	8.3	-3.2
O=C(c1cccc([N+](=O)[O-])c1)C12CN3CN(CN(C3)C1)C2
  -0.3	-2	0.68	-3%	1.4	-0.1	2.5
Cc1nc2ccccc2c(=O)n1-c1cccc(C(F)(F)F)c1
  0.5	-3	0.65	-2%	2.8	4.7	-1.1
CCOC(=O)N(C)c1ccc(C(O)(C(=O)OCC)C(F)(F)F)cc1 (centres undefined)
  -0.2	-3	0.7	0%	1.2	3.7	-1.4
CCN(CC)C(=O)c1ccc(NC(=O)CSc2nnnn2-c2cc(OC)ccc2OC)cc1
  -0.5	5	0.68	2%&3%	-2.4	2.9	-4.1
COC(=O)C1=C(c2ccc(F)cc2F)C[C@@H]2CC[C@H]1N2C
  -0.8	10	.	.	0.6	14	-2.7
O=c1[nH]c(=S)n(Cc2ccc(F)cc2)c(O)c1C=NCCCn1ccnc1
  -0.6	-6	0.65	15%	3.8	10	2.0
NP(=O)(OCC(F)(F)F)Oc1ccc(Cl)cc1 (centres undefined)
  0.3	0	0.71	-5%	0.4	5.2	-3.0
Cc1ccc2c(c1)CC1(CN2C)C(=O)NC(=O)N(c2cccc(C)c2C)C1=O (centres undefined)
  0.8	1	0.75	25%	-1.3	-0.2	-1.2
O=c1[nH]c(=O)n(CC2CCCO2)c(O)c1/C=C1\C=Nc2ccccc21 (centres undefined)
  -0.9&0.7	13&5	0.67&0.62	?	2.5&3.0	1.7&1.6	2.7&5.7
Cc1ccc(-c2ccc(=O)n(CCC(=O)N3CCC4(CC3)OCCO4)n2)cc1
  0.4	-7	0.65	20%	0.3	-1.8	-4.8
CC(C)(C)NC(=S)N1CCn2cccc2C1c1cccnc1 (centres undefined)
  -0.9	1	0.69	-3%	1.9	3.6	-0.6
CNC(=O)Nc1ccc(C(=O)N/N=C\C23CC[C@@H](O)CC2(O)CC[C@@H]2[C@@H]3CCC3(C)C(C4=CC(=O)OC4)CCC23O)cc1 (some centres undefined)
  0.8	-1	.	9%	3.6	.	5.7
CN1CCC(O)(c2ccc(Cl)cc2)C(C(=O)c2ccc(Cl)cc2)C1 (centres undefined)
  -0.2	4	0.64	13%	4.8	3.5	9.4
CCCCCCn1c(O)c(C=NC2CCCCC2N)c(=O)[nH]c1=O (centres undefined)
  0.2	.	0.7	-1%	.	0.3	2.6
C=CCN(CC=C)C(=O)Nc1ccc(OCC)cc1
  -0.6	-4	0.73	.	-0.4	4.0	-2.9
COC(=O)C1=C(c2ccc(C(C)=O)cc2)C[C@@H]2CC[C@H]1N2C(=O)NCCOc1ccccc1Cl
  0.0	-6	.	.	2.6	4.9	-2.0
COC(=O)C1=C(c2ccc(F)cc2OCc2ccccc2)C[C@@H]2CC[C@H]1N2C(=O)NCCNC(C)=O
  -0.6	-3	.	.	2.7	2.2	0.5
O=C(c1cc(S(=O)(=O)N2CCOCC2)ccc1F)N1CCC2(CC1)OCCO2
  0.1	-1	0.77	-4%	-2.3	4.3	1.3
C=CCn1c(O)c(C(C)=NCc2cccnc2)c(=O)[nH]c1=O
  -0.5	-7	0.65	2%	-1.4	4.5	-4.2
COc1ccc(CN2CCCC(C(=O)c3cccc(Cl)c3)C2)cc1 (centres undefined)
  0.1	9	0.67	.	0.6	5.0	1.1
CC12C=CC(=O)CC1CCC1C2CCC2(C)C(O)C(O)CC12 (centres undefined)
  .	18	0.7	-6%	0.4	4.9	.
COc1cccc(CNC(=O)CCC(=O)N2C[C@H]3C[C@H](C2)c2cccc(=O)n2C3)c1OC
  1.9	0	0.71	.	7.2	0.5	1.3
COC(=O)C1=C(c2cccc(C#N)c2)C[C@@H]2CC[C@H]1N2C(=O)N1CCCCC1
  0.6	3	.	.	1.4	3.8	-3.0
O=C(Nc1cccc2ccccc12)c1nn(C23CC4CC(CC(C4)C2)C3)cc1Br
  -0.8	2	0.73	2%	2.3	-1.8	-4.4
Cc1ccc(NC(=O)c2ccc(C)c(S(=O)(=O)N3CCCCC3)c2)nc1
  0.1	-3	0.66	-8%	0.5	1.7	6.2
CSc1cccc(NP2(=O)OCC(C)([N+](=O)[O-])CO2)c1 (centres undefined)
  .	-1	.	-9%	-4.2	.	.
CCOC(=O)C1=C(N)OC2=C(C(=O)CCC2)[C@]12C(=O)N(CC(N)=O)c1ccccc12
  0.6	-2	0.61	.	3.9	0.7	-1.1
CS(=O)(=O)N1Cc2cnnn2-c2ccccc2C1C#N (centres undefined)
  .	-1	.	-8%	-0.8	.	.
CC1=CC(=O)C2=C(C)C[C@H](O)[C@@H]3[C@H](OC(=O)[C@H]3C)[C@@H]12
  0.5	3	.	.	-0.3	-0.4	-3.9
C=CCn1c(O)c(C(C)=Nc2ccc(NC(C)=O)cc2)c(=O)[nH]c1=O
  0.2	18	0.68	4%	-2.2	5.1	-0.9
O=C(Nc1ccc(Cl)cc1)OC1CN2CCC1CC2 (centres undefined)
  -0.1	-1	0.61	31%	4.5	2.2	-1.5
C=Cc1ccc(Cn2c(C(=O)O)c(C=O)c3ccccc32)cc1
  -0.4	5	0.69	31%	3.2	-0.3	-3.6
COC(=O)C(O)(c1ccc(NC(=S)NC(=O)c2ccc(Cl)cc2Cl)c(C)c1)C(F)(F)F (centres undefined)
  -0.1	5	0.69	.	-1.8	0.3	6.0
Fc1ccccc1CNC1CN2CCC1CC2 (centres undefined)
  -0.2	6	0.72	1%	0.5	3.9	4.3

# Next section.
# Results follow in this order: A1 inh	B2AR ag	Ecoli growth	Vif TR-FRET	HNF4A DNA FP	UCH37 DUB inh	LANA-H2B inh
CC(=O)OCC[N+](C)(C)C
  0.1&1.2&0.8	-1&4&-8	0.67&0.67	29%&9%	-0.1&-1.3&-1.8	-0.2&5.3&0.5	-3.2&1.5&-2.6
O=C1CN=C(c2ccccc2)c2cc([N+](=O)[O-])ccc2N1
  .	-6	0.73	.	2.8	3.0	.
CCN(CC)CCCN=Cc1c(O)n(-c2ccccc2F)c(=O)[nH]c1=O
  -0.1	8	0.72	2%	-0.1	-2.1	0.1
C#CCOc1ccc2c(c1)c(C(C)=O)c(C)n2Cc1ccccc1
  -1.3	12	0.66	-2%	-2.9	-4.1	5.0
CN1CCN(c2nc(N(C)C)oc(=O)c2C#N)CC1
  -0.2	1	0.68	-2%	4.6	4.2	-4.0
CCOC(=O)[C@]12Cc3cc(OC)ccc3[C@H]1N(Cc1ccccc1)C(=O)c1cc(F)c(F)cc12
  .	-2	.	.	-1.4	4.8	.
Cc1ccc(S(=O)(=O)N(C)c2ccc(C(=O)NCC3(N(C)C)CCCCC3)cc2)cc1
  0.1	-4	0.7	-3%	-0.3	1.0	3.4
C[C@]12CC[C@H](O)CC1=CCC1C2CC[C@@]2(C)C1C[C@@H]1CC(=O)O[C@@H]12 (some centres undefined)
  -0.1	4	0.7	-12%	4.3	-1.4	-4.2
CCOC(=O)C1(c2ccccc2)Oc2ccccc2C(c2ccc(OC)cc2)=C1C(=O)OC (centres undefined)
  .	0	0.73	-3%	-0.7	1.9	.
CN1CCN(Cc2cc3c(cc2[N+](=O)[O-])OCO3)CC1
  -1.2	1	0.68	.	-3.1	2.5	-0.4
Cc1nn(Cc2ccccc2)c(Cl)c1C(=O)O
  -0.5	2	0.66	-5%	2.6	-1.9	1.3
O=C(O)C1C2c3ccccc3C(O)C1(C(=O)O)c1ccccc12 (centres undefined)
  .	7	0.71	-1%	-4.0	1.3	.
C=CCNC(=S)Nc1ccc(OC(=O)Nc2ccc(Cl)c(Cl)c2)cc1
  .	-2	.	-7%	3.6	.	.
Cn1c(O)c(C(=O)c2ccccc2)c(=O)n(C)c1=O
  1.2	1	0.7	1%	-0.1	42*	1.7
C[C@]12C=CC(=O)C=C1C=C[C@@H]1C2CC[C@]2(C)C(=O)CCC12 (some centres undefined)
  0.1	5	0.68	-3%	6.3	2.2	2.9
CCCC(C)C(=O)NC1CCSC1=O (centres undefined)
  1.7	14	0.71	76%	4.0	2.6	4.7
COc1cc(C)c(CNCCc2c[nH]c3ccccc23)cc1C
  0.9	7	0.66	4%	-0.6	3.8	-2.7
C#CC(CC)(CC)NC(=O)Nc1ccc(OCC)cc1
  -0.6	-3	0.69	-2%	4.0	2.6	-0.2
CC(=O)O[C@H]1C[C@@H]2OC3C=C(C)CCC3(C)[C@@]1(C)[C@@]21CO1 (some centres undefined)
  .	26	.	-1%	-2.3	.	.
COc1ccc(Cn2c(O)c(/C=N/NC(=O)c3ccccc3O)c(=O)[nH]c2=O)cc1
  -1.7	-7	0.66	20%	3.0	-6.2	-1.3
CC(C)c1ccc(N2C(=O)NC(=O)/C(=C\C=C\c3ccco3)C2=O)cc1
  1.4	.	.	9.3µM*	.	3.3	3.5
CCN(CC)C(=O)c1ccc(NC(=O)c2cccc(F)c2)cc1
  -5.8	-1	0.71	5%	1.4	2.2	2.8
